# VDR inh: blocks the human vitamin D receptor; P11473; VDR-SRC2-3 peptide fluorescence polarization, 2 h; Potency, µM, without a hit: max response, negative = inhibition, hits mostly inhibitors; 400,000 compounds, 0.93% hits; active = well fitted inhibition curve with a large enough effect; inconclusive = small, poorly fitted or top-dose-only effect, or another doubt; inactive = no such curve, though single readings can be large or run the other way; note: series mostly up to about 120 µM
# Target sequence (P11473 whole entry, looked up): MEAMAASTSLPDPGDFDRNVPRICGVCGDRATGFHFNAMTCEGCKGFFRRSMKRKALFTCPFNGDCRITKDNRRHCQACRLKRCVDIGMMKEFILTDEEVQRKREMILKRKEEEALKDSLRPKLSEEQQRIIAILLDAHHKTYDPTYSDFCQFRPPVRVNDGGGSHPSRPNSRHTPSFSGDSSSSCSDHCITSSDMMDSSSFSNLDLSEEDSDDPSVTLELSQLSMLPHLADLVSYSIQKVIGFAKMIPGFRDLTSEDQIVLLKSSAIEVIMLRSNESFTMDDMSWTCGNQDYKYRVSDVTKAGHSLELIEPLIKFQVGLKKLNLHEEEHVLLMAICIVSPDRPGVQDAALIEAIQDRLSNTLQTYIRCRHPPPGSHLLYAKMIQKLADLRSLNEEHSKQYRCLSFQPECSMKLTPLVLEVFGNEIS
#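 After 23 nl compound addition and a short centrifugation, plates sat for 2 hours at ambient temperature; polarization of fluorescence then indicated loss of VDR binding to peptide SRC2-3.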
# Active calls of the source: *; ? = inconclusive; & = joins results of further samples. % is set by controls: 0 for no effect and ±100 for the full control effect; potency is the fitted concentration of half-maximal effect. Not all compounds are listed; count on the stated rates, not on these rows.
mol | VDR inh
Cc1ccc(C2(c3ccccc3)NC(=O)N(CC(=O)NC3(C#N)CCCC3)C2=O)cc1C (centres undefined) | -12%
CCOc1ccc(C2=NC(c3cccs3)=Nc3ccc(CC)cc3N2)cc1OCC | -7%
COc1ccccc1CN1CCNC(=O)C1CC(=O)NCCc1cnccn1 (centres undefined) | -5%
CCN(c1ccccc1)S(=O)(=O)c1ccc(C(=O)NCc2ccco2)cc1 | -12%
CCOc1ccccc1N1CCN(C(=O)c2c(C)noc2C)CC1 | -11%
CCCc1cc(C(=O)Nc2cc(Br)ccc2O)no1 | 13%
CC1Cc2cc(/C(O)=C3/C(=O)C(=O)N(Cc4ccncc4)C3c3ccc(N(C)C)cc3)ccc2O1 (centres undefined) | -10%
COc1cc(OC)c(-c2nc3ccccc3s2)cc1OC | 10%
CCc1ccc(C(=O)NCC2(c3ccccc3)CCOCC2)o1 | 1%
O=C1c2cccc3c(N4CCCCC4)ccc(c23)C(=O)N1c1ccccn1 | -6%
Cc1ccc(-n2c(=O)c3cccnc3n2CC(=O)Nc2ccc(C)cc2Cl)cc1 | 3%
Cc1nnsc1S(=O)(=O)c1ccccc1 | -10%
COc1cc(-c2cc(=O)c3c(C)cc(O)cc3o2)cc(OC)c1OC | -19%
COc1ccc(COC(=O)c2cccc(S(=O)(=O)N3CCCC3)c2)cc1F | 3%
CCN(CC)CCCn1c(C)cc2c(c1=O)C(c1ccccc1)C(C#N)=C(N)O2 (centres undefined) | -8%
CN(CC(=O)NCc1ccccc1F)S(=O)(=O)c1ccc(Cl)cc1 | -3%
O=c1oc(-c2ccc(C(F)(F)F)cc2)nn1Cc1cc(Cl)ccc1O | -5%
CCCCCCCCCCCCCC/C(C(=O)O)=C(\C)C(=O)O | -1%
S=C(NNc1ccnc2cc(Cl)ccc12)Nc1ccccc1Cl | ?
CC(=O)c1c(C)[nH]c(C(=O)CSc2nc3ccccc3n2C)c1C | 4%
O=C(Cc1csc2ccccc12)NCc1cccc(Br)c1 | 1%
O=C(NCCCn1ccnc1)Nc1ccc2c(c1)OCO2 | 7%
Cc1ccccc1OCC(=O)OCc1cc(=O)n2nc(C3CC3)sc2n1 | 11%
Nc1nc(CN2CCN(c3ccccc3)CC2)nc(N2CCCc3ccccc32)n1 | -11%
CCOC(=O)c1cnc2c(C)c(Cl)ccc2c1N1CCN(CC)CC1 | -2%
CCc1cccc(CC)c1NC(=O)C(Cc1ccccc1)NS(=O)(=O)c1cccc2nsnc12 (centres undefined) | -5%
Cn1cc2cc(NC(N)=S)ccc2n1 | 0%
O=C(c1cc2ccccc2oc1=O)N(Cc1ccccc1)CC1CCCO1 (centres undefined) | 17%
CN1CCN(c2ccccc2NS(=O)(=O)c2ccc3c(c2)CCN3C(=O)C2CCC2)CC1 | -2%
Cc1ccc(CNC(=O)CN2C(=O)C3(OCCCO3)c3ccccc32)cc1 | 10%
Cc1ccccc1CCNC(=O)C1CCCN(c2cnccn2)C1 (centres undefined) | 1%
CCOc1ccc(Cn2c(-c3ccc(OCC)c(OC)c3)nc3ccccc32)cc1OC | -6%
COc1cccc(NC(=O)CSc2nnc(-c3cccc(OC(C)C)c3)n2N)c1 | -30%
CCCCC(=O)Nc1ccc(C(=O)NCCc2ccccc2)cc1 | -3%
COc1ccc(OC)c(NC(=O)c2cccnc2)c1 | ?
Cc1ccccc1C(=O)Nc1nnc(CC(=O)N/N=C/c2cn(Cc3ccccc3)c3ccccc23)s1 | 2%
CS(=O)(=O)N1CCC2(CCCN(C(=O)Nc3cccc(F)c3)C2)CC1 | 3%
O=C(c1ccc(NS(=O)(=O)c2cccc(F)c2)cc1)N1CCCCC1 | -11%
CCN=C1SC(C(=O)Nc2cccc(Cl)c2)CC(=O)N1CC (centres undefined) | -22%
O=C(COC(=O)c1c2c(nc3ccccc13)CCCCC2)NCc1ccc2c(c1)OCO2 | -16%
CCOC(=O)N1CCN(C(=O)CN(C2CCCCC2)S(C)(=O)=O)CC1 | -6%
CCOC(=O)c1sc(NC(=O)/C=C/c2ccc(OCC)cc2)c(C(=O)OCC)c1C | 11%
O=C(CCl)c1ccc(Cc2ncc(C(F)(F)F)cc2Cl)s1 | ?
COc1ccc(-c2nc(SCC(=O)Nc3cc(C)on3)n[nH]2)cc1 | -9%
O=C(NCc1ccco1)c1ccc(N2CCCC2=O)cc1 | 0%
CCCn1c(NCc2ccccc2NS(=O)(=O)c2ccc(C)cc2)nc2ccccc21 | -25%
CN(CC(=O)Nc1ccc(F)c(F)c1)S(=O)(=O)c1cccc2nsnc12 | -8%
COc1ccc(N2CCN(C(=O)c3cnn(-c4ccc(F)cc4)c3-n3cccc3)CC2)cc1 | -2%
C=CCn1c(SCC(=O)/C(C#N)=C(\C)N)nc2sc(CC)cc2c1=O | -24%&-6%
COc1nc(-c2ccccc2)ccc1-c1noc(COc2ccccc2)n1 | -6%
O=C(NCc1nc2ccccc2[nH]1)c1cccc(Cl)c1 | -4%
Cc1ccc(CNC(=O)C2CCC(=O)N(C3CCCC3)C2)c(F)c1F (centres undefined) | 25%
Cc1ccc(S(=O)(=O)C(CNC(=O)C(=O)NCc2ccccc2C)c2cccs2)cc1 (centres undefined) | -6%
COc1cc(C(=O)N(C)CCOc2ccc(C)cc2)ccc1OC1CCN(C(C)=O)CC1 | -14%
CC(=O)c1c(C)oc2ccc(O)c(CN3CCOCC3)c12 | 15%
O=C(CCn1nnc(-c2cccs2)n1)NCc1ccccc1Cl | 14%
CCN1CCN(c2ccc(S(=O)(=O)N3CCCCC3)cc2NC(=O)C(C)Oc2ccc(F)cc2)CC1 (centres undefined) | -7%
CC(C)OCC(O)CS(=O)(=O)Cc1ccccc1 (centres undefined) | 16%
CCOC(=O)C1CCN(C(=O)c2ccc(NC(=O)c3nsc4ccccc34)cc2)CC1 | -12%
CCOC(=O)C1CCCCN1Cc1ccc(F)cc1 (centres undefined) | 16%

# Some of these compounds in order of their number in VDR inh, descending.
mol | VDR inh
CC(C)OCC(O)CS(=O)(=O)Cc1ccccc1 (centres undefined) | 16%
Cc1ccccc1CCNC(=O)C1CCCN(c2cnccn2)C1 (centres undefined) | 1%
O=C(NCc1ccco1)c1ccc(N2CCCC2=O)cc1 | 0%

# 16 entries from above, with the structure last.
VDR inh	SMILES
0%	O=C(NCc1ccco1)c1ccc(N2CCCC2=O)cc1
-25%	CCCn1c(NCc2ccccc2NS(=O)(=O)c2ccc(C)cc2)nc2ccccc21
-8%	CN(CC(=O)Nc1ccc(F)c(F)c1)S(=O)(=O)c1cccc2nsnc12
-2%	COc1ccc(N2CCN(C(=O)c3cnn(-c4ccc(F)cc4)c3-n3cccc3)CC2)cc1
-24%&-6%	C=CCn1c(SCC(=O)/C(C#N)=C(\C)N)nc2sc(CC)cc2c1=O
-6%	COc1nc(-c2ccccc2)ccc1-c1noc(COc2ccccc2)n1
-4%	O=C(NCc1nc2ccccc2[nH]1)c1cccc(Cl)c1
25%	Cc1ccc(CNC(=O)C2CCC(=O)N(C3CCCC3)C2)c(F)c1F (centres undefined)
-6%	Cc1ccc(S(=O)(=O)C(CNC(=O)C(=O)NCc2ccccc2C)c2cccs2)cc1 (centres undefined)
-14%	COc1cc(C(=O)N(C)CCOc2ccc(C)cc2)ccc1OC1CCN(C(C)=O)CC1
15%	CC(=O)c1c(C)oc2ccc(O)c(CN3CCOCC3)c12
14%	O=C(CCn1nnc(-c2cccs2)n1)NCc1ccccc1Cl
-7%	CCN1CCN(c2ccc(S(=O)(=O)N3CCCCC3)cc2NC(=O)C(C)Oc2ccc(F)cc2)CC1 (centres undefined)
16%	CC(C)OCC(O)CS(=O)(=O)Cc1ccccc1 (centres undefined)
-12%	CCOC(=O)C1CCN(C(=O)c2ccc(NC(=O)c3nsc4ccccc34)cc2)CC1
16%	CCOC(=O)C1CCCCN1Cc1ccc(F)cc1 (centres undefined)

# Continued:
mol | VDR inh
Cc1ccc(NC(=O)C2CC(=O)N(Cc3ccccc3)C2)nc1 (centres undefined) | 5%
O=C1CC(c2ccc(S(=O)(=O)NCc3ccccc3)cc2)CN1 (centres undefined) | -18%
CCCCn1nnnc1NCc1cccs1 | -2%
Cc1ccc(/C=N/Nc2nc(C(C)(C)C)cs2)o1 | ?
CCOc1cccc(C2C=C(c3ccc4c(c3)OCO4)NC(c3ccc(Br)cc3)N2)c1O (centres undefined) | -21%
CC(C(=O)NCc1ccc(Cl)cc1)n1cccc1C(=O)c1ccccc1 (centres undefined) | 25%
O=C(COC(=O)CNS(=O)(=O)c1ccccc1)Nc1ccc(Cl)cn1 | -14%
Cc1cc(C)cc(NC(=S)N2CCN(c3ncc(C(F)(F)F)cc3Cl)CC2)c1 | 3%
CC(OC(=O)C1CCN(S(=O)(=O)c2ccc(C(C)(C)C)cc2)CC1)C(=O)N1CCOCC1 (centres undefined) | -6%
CC1=NN(C(=S)Nc2ccccc2)C(C)(C)C1 | 13%
O=C(CN1C(=O)CSc2ccc(S(=O)(=O)N3CCOCC3)cc21)N1CCCCC1 | -19%
CC1(C)CC(=O)c2cc(C(=O)Nc3ccc(Br)cc3)c(=O)[nH]c2C1 | 22%
S=C(NCCc1ccc(Cl)cc1)NC1CCCC1 | 11%
Cc1ccc(CSc2nc3c([nH]c4ccccc43)c(=O)n2C)cc1 | 7%
CCOC(=O)C1CCN(C(=O)CSc2ccc(Cl)cc2)CC1 | 7%
CC(=O)N1CCc2cc3nc(C)cc(C)c3cc21 | -2%
O=C(Nc1ccc(S(=O)(=O)Nc2nccs2)cc1)c1cccc(S(=O)(=O)N2CCOCC2)c1 | -23%
Cc1onc(-c2c(F)cccc2Cl)c1-c1nnc(-c2cccc3ccccc23)o1 | -5%
CC12CN(C(=O)c3ccc(Cl)cc3)C3(C#N)CC1CCC23C (centres undefined) | 3%
Nc1nnc(SCC(=O)NNC(=O)c2ccc(F)cc2)s1 | -1%
CCOC(=O)C1CCCN(S(=O)(=O)c2cc3c(cc2Cl)NC(=O)CO3)C1 (centres undefined) | 0%
O=C(OCC(=O)N1CCN(C(=O)c2ccco2)CC1)c1ccccc1NCCO | -5%
CCOC(=O)c1c(NC(=O)CSc2ncn[nH]2)sc(C(=O)N(C)C)c1C | -14%
CC(C)N(C(=O)CSc1nnc(NC(=O)Cc2cccs2)s1)C(C)C | -7%
CC(C)c1ccc(NC(=O)C2CCCCC2C(=O)O)cc1 (centres undefined) | -2%
C=CCNc1nc(C(=O)OCC(=O)c2ccc(F)cc2)cs1 | 0%
CCN(CC)CCN1C(=O)c2ccccc2NC1c1cc(OC)c(OC)c(OC)c1 (centres undefined) | 15%
Cc1cc(C)c2nc(N3CCCC(C(=O)NCc4cccc(Cl)c4)C3)sc2c1 (centres undefined) | -18%
CCn1ccnc1CNC(=O)c1ccc2oc(CCCc3ccccc3)nc2c1 | -5%
CCc1nc2c(cnn2-c2ccc(C)cc2)c(=O)n1Cc1ccccc1 | -15%
Cc1c(C(=O)N2CCC(Cc3ccccc3)CC2)sc2ncnc(N3CCC(C)CC3)c12 | -5%
Cc1ccc(S(=O)(=O)N2CCOCC2)cc1NC(=O)COC(=O)c1cc(=O)c2ccccc2o1 | 3%
CCN(CC)CCN1C(=O)C(=O)/C(=C(/O)c2ccccc2)C1c1ccccc1F (centres undefined) | -14%
Cc1noc(NS(=O)(=O)c2ccc(NC(=O)c3ccc(Br)cc3)cc2)c1C | -10%
CCc1c(C)sc2c1CCN(C(=O)Nc1cc(OC)c(OC)c(OC)c1)C2c1ccccc1 (centres undefined) | 0%
COc1ccc(C)cc1NC(=O)NCc1ccc2c(c1)CCN2C(=O)c1ccccc1 | 20%
CN(C)CCNc1ncnc2ccccc12 | -6%
CCCn1c(=N)c(S(=O)(=O)c2ccccc2)cc2c(=O)n3cccc(C)c3nc21 | -10%
O=C(CCSCCc1ccccn1)Nc1cccc([N+](=O)[O-])c1 | -2%
O=C(Nc1cccc(C(=O)NC2CC2)c1)c1ccc(F)c(S(=O)(=O)N2CCOCC2)c1 | -5%
O=C(NCCNCCO)C1(C(F)(F)F)CC(CCc2ccccc2)CCCO1 (centres undefined) | -1%
CCC(=O)Nc1ccc2nc(SCCOc3ccccc3)sc2c1 | 2%
O=C(CN(Cc1cccs1)C(=O)CNS(=O)(=O)c1ccc(F)cc1)NCc1ccco1 | -11%
C/C=C/C=C/C(=O)N1CC[C@]23c4ccccc4N[C@H]4N(C)c5cccc6c5[C@]42CCN([C@H]6C2OC2(C)C)[C@H]13 (some centres undefined) | 1%
CCOc1ccc(OCC(=O)Nc2ccc(S(=O)(=O)Nc3cc(C)on3)cc2)cc1 | -10%
CN(CCOc1ccccc1)C(=O)CCc1c[nH]c2ccccc12 | 10%
CCOc1ccc(-n2nc3ccc(NC(=O)COc4ccccc4)cc3n2)cc1 | 4%
O=C(NC1CCS(=O)(=O)C1)c1cccc(S(=O)(=O)N2CCCCCC2)c1 (centres undefined) | -2%
CC(=O)c1ccc(NC(=O)COc2ccccc2-c2nc(-c3cccc(C)c3)no2)cc1 | -7%
O=C1Cc2cc(S(=O)(=O)Nc3cccc(C(F)(F)F)c3)cc3c2N1CCC3 | 3%
CCOc1ccc(-c2nnc(SCC(=O)NCc3ccc(C)cc3)nc2-c2ccc(OCC)c(OC)c2)cc1OC | -14%
CCOc1cc2c3c(c1)C1(C(=O)N3C(C)(C)CC2C)C(C#N)=C(N)N2C(=C1C#N)Nc1ccccc12 (centres undefined) | 2%
CCN1C(=O)[C@H]2[C@@H](c3ccc(-c4ccc(Cl)c(Cl)c4)c(OC)c3)N[C@@](C)(C(=O)OC)[C@H]2C1=O | -3%
COc1ccc(CNC(=O)COC(=O)CN2C(=O)COc3ccccc32)cc1 | -25%
Nc1ccc2c(c1)C(O)c1ccc(Cl)cc1-2 (centres undefined) | 1%
Cn1c(-c2ccsc2)c(-c2cccs2)c2cc(-c3ccc4cc[nH]c4c3)ccc21 | 11%
CCOC(=O)N1CCN(C(=O)c2ccc3nc(N4CCCCC4)sc3c2)CC1 | -3%

# Bioassay records as filed in PubChem BioAssay.
